Vaccinia pol inh – inhibitors of vaccinia virus processive DNA synthesis (E9 polymerase); in vitro processive DNA synthesis, absorbance read-out; hits give low values; some inactives read as strong as hits; normalized absorbance, % (test concentration not listed); 46,000 tested, 0.94% active; AID 493162;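 active = replicate mean up to 90% and picked by the depositor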;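 also: 100% = median of the test wells of a plate; 100 nL library stock went into each well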
Numbers without * were called inactive. Some of the compounds tested, so the mix of outcomes need not match the whole.

SMILES | Vaccinia pol inh
O=C(O)C1C2C=CC(C2)C1C(=O)Nc1ccccc1O (stereo not drawn) | 98
CCCc1ccc(OCC(O)CNC(C)(C)C)cc1 (stereo not drawn) | 105
Cc1cc(C)c(CSc2nnc(C)s2)c(C)c1 | 97
O=C(c1ccc(Cl)cc1Cl)N1CCCC1c1ccc(F)cc1 (stereo not drawn) | 95
NNC(=O)c1cc(CSc2ccc(Cl)cc2)on1 | 99
CCC(Sc1nnc2sc3ccccc3n12)C(=O)OC (stereo not drawn) | 106
CC(C)N(Cc1ccccc1)C(=O)Nc1ccc(C(F)(F)F)cc1 | 93
COc1ccccc1N1CCN(c2ccc3ccccc3n2)CC1 | 100
Cn1c(=O)c2c(nc(Sc3nnc(N)s3)n2C)n(C)c1=O | 100
Cc1ccccc1NC(=O)CSc1nc2ccc(N)cc2s1 | 91
CCC(=O)Nc1nc(C2CCCCC2)cs1 | 99
O=S(=O)(c1ccc(F)cc1)N1CCSC1c1ccccc1 (stereo not drawn) | 100
CCN1CCN(C(=O)c2cc(Cl)nnc2Cl)CC1 | 93
COC(=O)c1cc(-c2cccc(OC)c2)on1 | 98
Cc1noc(NS(=O)(=O)c2ccc(N)cc2)c1C | 99
CC(Cc1ccccc1)NC(=O)c1cnc[nH]1 (stereo not drawn) | 101
C=CC(=O)Nc1sc2c(c1C(=O)OCC)CCCC2 | 102
CCCCOc1ccc(OCCCN2CCOCC2)cc1 | 100
Cc1ccccc1Oc1ccc(S(=O)(=O)N2CC(C)OC(C)C2)cc1 (stereo not drawn) | 74
CN(Cc1ccccc1)C(=O)C1CCCN1S(=O)(=O)c1ccc(Cl)cc1 (stereo not drawn) | 101
Ic1ccc(Nc2nc3nonc3nc2N2CCCCC2)cc1 | 100
O=c1c2ccccc2nc(SCc2c(F)cccc2F)n1Cc1ccccc1 | 76*
COc1ccc(OC)c(S(=O)(=O)c2ccc(Br)cc2)c1 | 108
COc1ccc(-c2nc(NC(=O)C3CC3)sc2C)cc1 | 93
COc1ccc2c(c1)C(C)CC(C)(C)N2C(=O)Nc1ccc(Cl)cc1 (stereo not drawn) | 100
CCN1C(=O)c2ccccc2S(=O)(=O)c2ccc(C(=O)N3CCCC3)cc21 | 102
O=C(CCCCn1cnc2ccccc21)c1ccccc1 | 100
O=C(NCC1CCCO1)c1cc2sc3ccccc3c2s1 (stereo not drawn) | 66*
CC1CCc2c(sc(/N=C/C=C/c3ccccc3)c2C#N)C1 (stereo not drawn) | 94
COc1ccc2ccccc2c1-c1c(OC)ccc2ccccc12 | 100
COc1ccc(N(C)S(=O)(=O)c2ccc3c(c2)CCN3C(=O)C2CCC2)c(OC)c1 | 97
O=C(COC(=O)c1sc2ccccc2c1Cl)NC1CCCC1 | 101
Cc1ccc(S(=O)(=O)c2nnn(-c3cccc(Cl)c3)c2C)cc1 | 93
CC(=O)Nc1cc(C(=O)NC2CCC(C)CC2)ccc1S(=O)(=O)c1ccc(Cl)cc1 (stereo not drawn) | 103
O=C(NCC1CCCO1)C1CCC1 (stereo not drawn) | 97
CC(=O)Nc1cccc(-c2cc(=O)c3ccccc3o2)c1O | 90
Cc1nnc(NC(=O)C23CC4CC(CC(C4)C2)C3)s1 | 112
CCOc1ccc(CCNC(=O)c2cn(CC)c3nc(C)ccc3c2=O)cc1OCC | 96
O=C(NC1CCCC1)C1=COCCO1 | 108
N#CC(C#N)=C(NCc1ccc(Cl)nc1)Nc1ccccc1 | 100
COC(=O)c1ccc(/C=C2/NC(=O)N(Cc3ccc(Br)cc3)C2=O)cc1 | 96
COCC(=O)NC(C)c1nc2ccccc2n1C (stereo not drawn) | 97
O=C(CSc1nccn1-c1ccccc1)Nc1ccc(OC(F)(F)F)cc1 | 99
Cc1cc(=O)[nH]c(SCC(=O)c2ccc(O)c(O)c2)c1C#N | 102
CN1C/C(=C\c2ccc(C(F)(F)F)cc2)C2=NN(C)C(c3ccc(C(F)(F)F)cc3)C2C1 (stereo not drawn) | 111
Cc1ccc(CCP(=O)(O)CN2CCCCC2)cn1 | 100
COC(=O)C1=CN(CCc2ccc(OC)cc2)C=C(C(=O)OC)C1c1ccsc1 | 98
Fc1ccc(Cn2c(-c3ccco3)nc3ccccc32)cc1 | 97
CN1CCCC(OC(=O)c2cc(Br)ccc2Cl)C1 (stereo not drawn) | 88
Cc1cccc(CN2CCC(CNC(=O)c3cc4c(=O)[nH]c5ccc(C)cc5c4s3)CC2)c1 | 94
Fc1cc(OCc2cnc(Cl)s2)ccc1Cl | 100
O=C(NC(Nc1cccc2ccccc12)C(=O)c1ccccc1)c1ccco1 (stereo not drawn) | 97
Cc1ccc(Cl)cc1NC(=O)COC(=O)C1CC1 | 105
CC1=CS(=O)(=O)CC1SC(=S)NC(C)C (stereo not drawn) | 100
O=C(Nc1ccc(Cl)cc1)c1sc2ccccc2c1Cl | 98
O=C(O)C1C2C=CC(C2)C1C(=O)Nc1ccc2ccccc2c1 (stereo not drawn) | 105
O=C(O)CCC12CC3CC(CC(Br)(C3)C1)C2 | 97
CCSc1nnc(-c2ccco2)n1N | 77
COC(=O)c1cc2sc3ccccc3c2s1 | 100
COc1ccccc1CNC(=O)Cn1cnc2ccc(S(=O)(=O)N3CCC(C)CC3)cc2c1=O | 95
Further structures:
SMILES | Vaccinia pol inh
Cc1c(C(=O)O)cnc2cc(-c3ccccc3)nn12 | 100
CCOC(=O)CN1C(=O)C2(C(C#N)=C(N)Oc3n[nH]c(C)c32)c2ccccc21 (stereo not drawn) | 100
COc1ccc(-c2nn(-c3ccccc3)cc2C(=O)OCC(C)C)cc1 | 100
O=C(N/C=C/c1cccs1)NCc1ccc(C(F)(F)F)cc1 | 95
CC1CN(c2oc(-c3ccccc3F)nc2C#N)CC(C)O1 (stereo not drawn) | 101
CN(C1CCCCC1)S(=O)(=O)c1ccc(F)c(F)c1 | 93
Cc1ccccc1C(=O)Nc1ccc(NC(=O)c2ccc(C(C)(C)C)cc2)cc1 | 100
Oc1ccc2ccccc2c1C=NN1CCN(Cc2ccccc2)CC1 | 101
COc1ccc2nc(N3CCCC3=O)sc2c1 | 96
N#Cc1cnc(SCc2cc(=O)n3ccccc3n2)nc1N | 99
O=C(NCCC(c1ccccc1)c1ccccc1)c1cccs1 | 100
O=c1oc2ccccc2cc1-c1csc(Nc2ccc(F)cc2)n1 | 97
CN(C)C(C#N)c1c[nH]c2ccccc12 (stereo not drawn) | 101
O=C(NCC(=O)N1CCOCC1)c1ccccc1 | 100
N=c1c(Cl)cc(C(F)(F)F)cn1O | 99
O=C(/C=C/c1ccc(Br)o1)OCC(=O)c1cccc(C(F)(F)F)c1 | 101
CN(C(=O)c1ccccc1)C1CCCCC1 | 98
Cc1cccc(OC(C)C(=O)O)c1 (stereo not drawn) | 98
COc1ccc(Oc2ccc(C(F)(F)F)cc2NS(=O)(=O)c2cccc3nonc23)cc1 | 106
Cc1ccc(C(=O)C2=C(N)OC3=C(C(=O)CC(C)(C)C3)C2c2ccccc2)cc1 (stereo not drawn) | 100

Reformatted: 19 of the compounds above
Structure	Vaccinia pol inh
COC(=O)c1cc2sc3ccccc3c2s1	100
COc1ccccc1CNC(=O)Cn1cnc2ccc(S(=O)(=O)N3CCC(C)CC3)cc2c1=O	95
Cc1c(C(=O)O)cnc2cc(-c3ccccc3)nn12	100
CCOC(=O)CN1C(=O)C2(C(C#N)=C(N)Oc3n[nH]c(C)c32)c2ccccc21 (stereo not drawn)	100
COc1ccc(-c2nn(-c3ccccc3)cc2C(=O)OCC(C)C)cc1	100
O=C(N/C=C/c1cccs1)NCc1ccc(C(F)(F)F)cc1	95
CC1CN(c2oc(-c3ccccc3F)nc2C#N)CC(C)O1 (stereo not drawn)	101
CN(C1CCCCC1)S(=O)(=O)c1ccc(F)c(F)c1	93
Cc1ccccc1C(=O)Nc1ccc(NC(=O)c2ccc(C(C)(C)C)cc2)cc1	100
Oc1ccc2ccccc2c1C=NN1CCN(Cc2ccccc2)CC1	101
COc1ccc2nc(N3CCCC3=O)sc2c1	96
N#Cc1cnc(SCc2cc(=O)n3ccccc3n2)nc1N	99
O=C(NCCC(c1ccccc1)c1ccccc1)c1cccs1	100
O=c1oc2ccccc2cc1-c1csc(Nc2ccc(F)cc2)n1	97
CN(C)C(C#N)c1c[nH]c2ccccc12 (stereo not drawn)	101
O=C(NCC(=O)N1CCOCC1)c1ccccc1	100
N=c1c(Cl)cc(C(F)(F)F)cn1O	99
O=C(/C=C/c1ccc(Br)o1)OCC(=O)c1cccc(C(F)(F)F)c1	101
CN(C(=O)c1ccccc1)C1CCCCC1	98

The list goes on:
SMILES | Vaccinia pol inh
CN(C)c1sc(C#N)cc1-c1ccccc1 | 107
CCCC(=O)NCCc1cc2ccc(C)cc2[nH]c1=O | 98
Cc1ccc(Sc2nc(C)cc(C)c2S(C)(=O)=O)cc1 | 114
CCC(=O)NC(Nc1ccc(O)cc1)(C(F)(F)F)C(F)(F)F | 106
CNC(=O)CSc1cnc2ccccc2n1 | 101
CC(C)C(=O)Nc1cccc(Cl)c1 | 99
CC(C)(c1ccc(O)c(Cl)c1)c1ccc(O)c(Cl)c1 | 94
CC(SC1=NCCN1S(=O)(=O)c1ccccc1)c1ccccc1 (stereo not drawn) | 94
O=C1c2oc3ccccc3c(=O)c2C(c2ccccc2)N1c1nccs1 (stereo not drawn) | 100
O=C(NCC1OCCc2ccccc21)c1ccc(Br)cc1 (stereo not drawn) | 100
CC1CCc2c(sc(NC(=O)c3cc4nc(-c5ccccc5)cc(C(F)(F)F)n4n3)c2C#N)C1 (stereo not drawn) | 102
C=CCn1c(CCCNC(=O)C(C)(C)C)nc2ccccc21 | 101
C=CCN(CC=C)CC(O)Cn1c2c(c3cc(C)ccc31)CCCC2 (stereo not drawn) | 101
COc1ccc(C(=O)c2ccccc2)cc1CN1CCOCC1 | 100
O=C(Nc1ccc(Br)cc1)c1noc2c1CCc1ccccc1-2 | 101
CCCCN(C)S(=O)(=O)c1ccc(C(=O)Nc2nc3ccc4ccccc4c3s2)cc1 | 100
CC1CCCC(C2(O)C(=O)Nc3ccccc32)C1=O (stereo not drawn) | 100
O=c1c2cc(NC(=S)NC3CCCCCC3)ccc2nc2n1CCCCC2 | 93
COC(=O)c1ccc2[nH]c(C)cc(=O)c2c1 | 100
CC1(C)CC(=O)C(C=Nc2cccc(NC3=C(C#N)C(=O)CC(C)(C)C3)c2)=C(O)C1 | 100
Cc1ccc(NC2=C/C(=N/S(=O)(=O)c3ccc(F)cc3)c3ccccc3C2=O)cc1C | 101
CC(C)CCNC(=O)C1CCC(=O)N1CCc1ccccc1 (stereo not drawn) | 91
O=C(NC(C(=O)O)c1ccccc1)c1ccccc1 (stereo not drawn) | 104
O=CNC(C(=O)Nc1cccc(Cl)c1)c1ccccc1Cl (stereo not drawn) | 97
O=C1CN(c2ccccc2)C=NN1 | 100
O=C1C(=Nc2ccccc2)c2ccccc2N1CN1CCN(c2ccccc2)CC1 | 100
Cn1c(O)c(/C=N/c2sc3c(c2C#N)CCCC3)c2ccccc21 | 100
CN(C1CCCC1)C1CCN(C(=O)CNC(=O)/C=C/c2ccccc2)CC1 | 104
O=C(COC(=O)c1cccnc1)NC(c1ccccc1)c1ccccc1 | 101
CC(C)CN(CC(C)C)S(=O)(=O)c1cccc2cccnc12 | 98
CCC(Sc1nncn2c1cc1occc12)C(=O)Nc1ccccc1OC (stereo not drawn) | 97
Cc1ccc(S(=O)(=O)N2CCN(C(=O)OC(C)C)CC2)cc1 | 100
COC(=O)C(Cc1ccc(O)cc1)N1Cc2ccccc2C1=O (stereo not drawn) | 92
O/N=C/c1ccc(-c2cc(Cl)ccc2Cl)o1 | 101
Nc1nonc1C(=O)OCC(=O)N1CCOCC1 | 100
Cc1ccccc1NC(=O)c1cc2ccccc2cc1O | 99
O=C1CC(n2nnnc2-c2ccccc2)C2COC1O2 (stereo not drawn) | 100
Fc1ccc(NC(=S)N2CCCCC2CCN2CCOCC2)cc1 (stereo not drawn) | 102
O=S(=O)(c1cccc(C(F)(F)F)c1)N(CCCN1CCOCC1)Cc1cccs1 | 84
CCOC(=O)c1nnn2c1nc(SCC(N)=O)c1ccccc12 | 109
C(=N\n1cnnc1)/c1nc2ccccc2n1Cc1ccccc1 | 106
COc1ccc(CCNC(=O)Cn2c(SCc3ccc(C)cc3)nc3cccnc32)cc1OC | 98
Nc1ccc2nc(SCc3ccccc3Cl)sc2c1 | 100
CCn1c(C(=O)O)c(CC(=O)NC2CCCCCC2)c2ccccc21 | 99
COc1ccc(CNc2nc3nc4c(c(=O)n3[nH]2)CCC4)cc1OC | 102
CCc1cc(=O)oc2c(C)c(OC)ccc12 | 100
COC(=O)c1ccc(C(=O)Nc2cc(Cl)ccc2Cl)cc1N | 107
Cc1sc2c(c1C)CN(C(C)(C)C)CN2C(=O)c1ccccc1 | 92
COc1ccc(-n2cc(C(=O)NCCN3CCc4ccccc4C3)c3ccccc3c2=O)cc1 | 92
O=C1C2C=CC=CC2=NC(=S)[N+]1=Nc1c(O)[nH]c2ccccc12 (stereo not drawn) | 100
O=C(c1ccccc1)n1cnc2ccccc21 | 100
CC(=O)Nc1ncc2c(n1)CC(c1ccccc1)CC2=O (stereo not drawn) | 100
COc1ccccc1/C=C1\CS/C(=C\c2ccccc2OC)C1=O | 103
Cc1c(C)n(Cc2ccccc2)c2ccc(C(=O)OCCN3CCOCC3)cc12 | 98
O=C(O)Cn1cc(C(=S)N2CCCCC2)c2ccccc21 | 100
OC(Cn1cncn1)(Cn1cncn1)c1ccc(F)cc1F | 100
O=C(Cc1csc2ccc(Cl)cc12)OCc1ccccc1 | 95
CCOC(=O)c1sc(N2N=C(C)/C(=C\c3ccco3)C2=O)nc1C | 100
O=C(NS(=O)(=O)NC(=O)c1ccccc1)c1ccccc1 | 99
Cc1ccc2nc(CCC(=O)O)[nH]c2c1 | 105

A draw from above in order of count of non-hydrogen atoms, rising.
SMILES | Vaccinia pol inh
Fc1ccc(NC(=S)N2CCCCC2CCN2CCOCC2)cc1 (stereo not drawn) | 102
CN1C/C(=C\c2ccc(C(F)(F)F)cc2)C2=NN(C)C(c3ccc(C(F)(F)F)cc3)C2C1 (stereo not drawn) | 111
COc1ccc(-n2cc(C(=O)NCCN3CCc4ccccc4C3)c3ccccc3c2=O)cc1 | 92

Compound activity (PubChem BioAssay)
